# Screening results deposited in PubChem by National Center for Advancing Translational Sciences (NCATS).
# NPR1 antag – Natriuretic polypeptide receptor (hNpr1) antagonism - Primary qHTS | Atrial natriuretic peptide receptor 1 (Homo sapiens), P16066 | HEK293 hNpr1 GloSensor cGMP, ANP-stimulated luminescence | Potency, µM (doses to about 46.3 µM), inactives show at the highest dose activity change, negative = inhibition, actives largely listed as inhibitors | 1.6% of 76,000 active | AID 1347048, 2019; active = well fitted inhibition curve with a large enough effect; inconclusive = small, poorly fitted or top-dose-only effect; inactive = no such curve, though single readings can be large or run the other way;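 also: nearly all actives have a fitted effect of over 60% in size; nearly all hits also lower the signal before the agonist is added; a reference antagonist and vehicle were the controls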
# Target sequence (P16066 whole entry, looked up): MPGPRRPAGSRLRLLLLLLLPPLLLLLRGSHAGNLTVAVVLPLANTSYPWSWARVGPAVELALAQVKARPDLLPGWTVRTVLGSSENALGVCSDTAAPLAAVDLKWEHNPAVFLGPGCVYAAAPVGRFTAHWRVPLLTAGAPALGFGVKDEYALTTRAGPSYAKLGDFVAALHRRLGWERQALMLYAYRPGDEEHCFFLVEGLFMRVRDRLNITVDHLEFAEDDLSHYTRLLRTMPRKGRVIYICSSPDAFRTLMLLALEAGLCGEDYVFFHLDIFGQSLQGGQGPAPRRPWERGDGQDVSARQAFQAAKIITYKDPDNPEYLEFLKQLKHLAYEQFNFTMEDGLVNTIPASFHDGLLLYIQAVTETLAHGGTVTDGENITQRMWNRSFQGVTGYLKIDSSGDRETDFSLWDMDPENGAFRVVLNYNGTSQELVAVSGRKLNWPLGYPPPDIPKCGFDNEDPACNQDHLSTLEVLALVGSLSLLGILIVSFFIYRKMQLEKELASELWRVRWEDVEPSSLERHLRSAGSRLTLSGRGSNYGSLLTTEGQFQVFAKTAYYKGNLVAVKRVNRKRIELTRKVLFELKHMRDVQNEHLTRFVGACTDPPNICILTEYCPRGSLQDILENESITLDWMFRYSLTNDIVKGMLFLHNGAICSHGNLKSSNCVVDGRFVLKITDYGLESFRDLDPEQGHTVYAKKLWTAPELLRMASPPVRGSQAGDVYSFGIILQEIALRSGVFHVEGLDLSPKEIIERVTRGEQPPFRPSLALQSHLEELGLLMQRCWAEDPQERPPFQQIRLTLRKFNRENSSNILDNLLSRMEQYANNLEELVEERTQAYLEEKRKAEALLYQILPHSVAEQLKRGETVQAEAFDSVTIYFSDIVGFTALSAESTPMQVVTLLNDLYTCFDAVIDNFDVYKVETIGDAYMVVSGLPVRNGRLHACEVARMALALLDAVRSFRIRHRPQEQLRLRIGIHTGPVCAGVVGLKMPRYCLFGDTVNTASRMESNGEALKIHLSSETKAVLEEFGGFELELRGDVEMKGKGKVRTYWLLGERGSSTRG
#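 HEK293 cells stably expressing human Npr1 and cGMP GloSensor pGS-40F, loaded 2 h with 2% GloSensor reagent, given compound 30 min at room temperature. Luminescence read before and 20 min after 0.1 nM hNppA.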
# * hit, by the source's call; ? = inconclusive; [ ] = dose if it differs, or a comment. % is scaled to controls: 0 for no effect and ±100 for the full control effect; potency is read from the fitted curve at half-maximal effect. Only part of the results is shown; the hit share may differ from the screen's.
NPR1 antag	molecule
2%	CCc1nncn1C1CCN(S(=O)(=O)c2cc(F)ccc2OC)C1 (configuration not stated)
-2%	Cc1nnnn1-c1cccc(C(=O)N2CCCC(O)(CN(C)C)CC2)c1 (configuration not stated)
-11%	O=C(NCc1ccccn1)C1Cn2cccc2C(=O)N1Cc1ccccc1 (configuration not stated)
-13%	Cc1ccc(C(=O)N(CC(C)C)CC2CN(C(=O)c3ccc(Cl)c(Cl)c3)CCO2)cc1 (configuration not stated)
-3%	C=CCc1ccccc1OCCN(C)Cc1cnc2ccccc2n1
2%[70.6 µM]	CC1(C)C[C@H](NC2CCC2)[C@@]2(CCC(=O)NCc3cccnc3)CC[C@](C)(O)C[C@@H]12
24%[70.6 µM]	Cc1cc(CN(C)C2CCc3ccccc32)no1 (configuration not stated)
-6%[70.6 µM]	Cc1ccc2c(n1)N(C)[C@H](CO)CCN(C1Cc3ccccc3C1)C2
-23%	CN1CCC(OC2CCN(S(=O)(=O)c3ccc(F)cc3F)CC2)CC1
1%	CCCCN(C)C(=O)c1c(C)oc2ccn(Cc3ccc(F)cc3)c(=O)c12
7%	OC[C@@H]1O[C@H](CNC2CCOCC2)[C@H](N2CCN(c3ncccn3)CC2)[C@@H]1O
2%	CCc1cccc2c(C(CC(=O)NCC(C)C)c3ccc(OC)c(OC)c3)c[nH]c12 (configuration not stated)
4%	Cc1ccc(NC2CCCN(C(=O)CN3CC(=O)NC3=O)C2)cc1C (configuration not stated)
-3%	Cc1nc2cccnc2n1CC1CCCN(C(=O)Nc2ccccc2C(F)(F)F)C1 (configuration not stated)
5%	CCn1cnnc1CCNC(=O)c1cc(-c2ccc(C)cc2)nc2ccccc12
-1%	O=C(NCc1ccc2nonc2c1)[C@@]12CNC[C@@H]1CN(C1CCCC1)C2
6%	COc1cccc(CNC(=O)[C@@H]2C[C@@H](O)CN2C2CCN(C(=O)Cc3ccc(C)cc3)CC2)c1
3%[70.6 µM]	CC(C)(C)C(=O)N1CCN(c2nc3ncccc3o2)CC1
-2%	O=C(NCCOc1ccccc1Cl)C1CCC(=O)N(C2CCCC2)C1 (configuration not stated)
0%	O=C(CC1CCCN(c2cnn(CC3CC3)c(=O)c2)C1)NCCN1CCCC1 (configuration not stated)
1%	Cc1noc([C@@H]2CC(F)(F)CN2C(=O)Cc2ccc(F)cc2)n1
-14%	O=C(c1ccc[nH]c1=O)N1CCC(n2cc(-c3nc(-c4ccccc4)no3)nn2)CC1
2%[70.6 µM]	Fc1ccc(-c2nnc3ccc(N4CCN(Cc5ccccc5)CC4)nn23)nc1
-14%	CSc1cccc(NC(=O)c2cc3c(N4CCSCC4)nc(C)cn3n2)c1
-2%[70.6 µM]	c1ccc(Cc2nnc([C@H]3CCN(Cc4ccncc4)C3)o2)cc1
-25%	c1ccc(CCc2noc(-c3ccc(NCCN4CCCC4)nc3)n2)cc1
3%	Cc1noc(-c2cccc(F)c2)c1C(=O)NCc1cccc(Cl)c1
3%	Cc1noc(-c2ccc(N3CCN(Cc4nccn4C)CC3)nc2)n1
3%	O=C1CCN(C(=O)C2CCN(C(=O)C3CC3)CC2)CCCCCCN1
6%	c1ccc(C(CNc2ncncn2)N2CCCCCC2)cc1 (configuration not stated)
-16%	O=C1CC(c2noc(-c3ccc(Cl)cc3)n2)CN1c1ccc(F)cc1 (configuration not stated)
?	O=C(Cc1c[nH]c2ncc(-c3ccc(Oc4ccccc4)cc3)cc12)NCc1cccnc1

# Exported with tabs: part of the list above
Structure	NPR1 antag
O=C1CC(c2noc(-c3ccc(Cl)cc3)n2)CN1c1ccc(F)cc1 (configuration not stated)	-16%
c1ccc(C(CNc2ncncn2)N2CCCCCC2)cc1 (configuration not stated)	6%
c1ccc(CCc2noc(-c3ccc(NCCN4CCCC4)nc3)n2)cc1	-25%
c1ccc(Cc2nnc([C@H]3CCN(Cc4ccncc4)C3)o2)cc1	-2%[70.6 µM]

# (list continues)
NPR1 antag	molecule
-2%[70.6 µM]	O=C(NCC1CC1)C1CN(Cc2ccccc2)C(=O)N1 (configuration not stated)
-6%	COCCOc1ccc(-c2ccnc(OC)c2C#N)cc1
-1%[70.6 µM]	CS(=O)(=O)N[C@H]1CCN2C(=O)c3cc(Br)ccc3NC(=O)[C@@H]2C1
-2%[70.6 µM]	CN1CCN(c2ccc3ncc(Nc4ccccc4F)n3n2)CC1
-1%	O=C(NCc1ccco1)N1CCCC2(C1)Nc1cccnc1NC2=NCc1ccccc1 (configuration not stated)
0%	N#Cc1cccc(-c2ccnc(N[C@H]3CO[C@H]4[C@@H]3OC[C@@H]4NC(=O)c3ccc(C(F)(F)F)cc3)n2)c1
32µM*	O=C(Nc1cccnc1)c1nc2c(o1)CCN(Cc1ccc(F)cc1F)CC2
6%	COCCNC(=O)C(NC(=O)c1ccccc1Cl)C1CCN(C(=O)C2CCCC2)CC1 (configuration not stated)
0%	COCCNC(=O)[C@H]1C[C@H](Oc2ccccc2)CN1Cc1cccc(C)c1
4%	O=C(O)C1(Oc2ccc(Cl)cc2)CCN(c2cnccn2)CC1
-11%	CCNC(=O)CCc1c(C)nn(-c2ccccc2)c1Oc1ccc(F)cc1F
-5%[70.6 µM]	O=C(NC1CC1)c1ccc2cncn2c1
1%	NC(=O)[C@H](Cc1ccccc1)NCc1cc(=O)c2cc(F)ccc2[nH]1
3%[70.6 µM]	C=CCNC(=O)N[C@H]1CO[C@H]2[C@@H]1OC[C@@H]2Nc1nccc(-c2ccccc2OC)n1
-3%[70.6 µM]	CNC(=O)C1(N2CCC[C@H]2C(=O)NC2CCOCC2)CCOCC1
6%	Cc1cnc(C(=O)N[C@@H]2CCC[C@@H]2C(=O)NCc2cccc(F)c2)cn1
3%	O=C(c1ccc(F)cc1)N1CCn2c(nn(-c3ccc(F)cc3)c2=O)C1
3%[70.6 µM]	COC(=O)[C@@H]1Cc2ncn(C)c2CN1S(=O)(=O)c1ccc(C#N)cc1
-2%	CCc1noc(-c2ccn3c(CNC(=O)CCc4ccc(OC)cc4)nnc3c2)n1
4%	Cc1ccc(C2NC(=O)N(CC(=O)NC3CCCCC3)C3=C2C(=O)OC3)cc1 (configuration not stated)
-8%	CC(C)OCCCNC(=O)c1cc2cn(C(C)C)cc2s1
-12%	COc1ccc(NC(=O)C2CN(S(=O)(=O)c3cccnc3)CC23CCCCC3)cc1F (configuration not stated)
-1%[70.6 µM]	Cc1ccc2nc(CO[C@H]3CN(Cc4ccc(C(=O)O)cc4)C[C@H]3F)[nH]c2c1
-13%	O=C(NCc1ccccc1)C1(Oc2ccc(Cl)cc2)CCNCC1
-5%	CCOc1ccccc1C1NC(=O)N(CC(=O)Nc2ccc(C)c(C)c2)C2=C1C(=O)OC2 (configuration not stated)
-3%	COc1ccc2[nH]c(C[C@@H]3C[C@@H](C(C)C)[C@H](CNC4CCN(C(C)=O)CC4)C=C3C)nc2n1
-11%[70.6 µM]	Cn1ccc(NC(=O)[C@@H]2C[C@@H](c3ccc(F)cc3)N([S+](=O)([O-])c3ccccc3)C2)n1
1%	COc1cccc(CNC(=O)CN2C(=O)NC3(CCCCC3)C2=O)c1
-3%[70.6 µM]	Cc1cccc(N(C)c2ccc3nnc(-c4cc(C(=O)N(C)C)ccn4)n3n2)c1
-27%	Cc1cc(C2CC(C(=O)NCc3cccc(F)c3)CN(C(=O)C3CC3)C2)ccc1F (configuration not stated)
7%	O=C1CC(c2ccccc2)N(C(=O)c2ccoc2)CCCCCN1 (configuration not stated)
4%	Cn1cc(CN2CCCC23CCN(c2ncccn2)CC3)c(-c2ccccc2)n1

# 6 compounds out of the list, ordered by number of heavy atoms, high to low.
NPR1 antag	molecule
-3%	COc1ccc2[nH]c(C[C@@H]3C[C@@H](C(C)C)[C@H](CNC4CCN(C(C)=O)CC4)C=C3C)nc2n1
-5%	CCOc1ccccc1C1NC(=O)N(CC(=O)Nc2ccc(C)c(C)c2)C2=C1C(=O)OC2 (configuration not stated)
-27%	Cc1cc(C2CC(C(=O)NCc3cccc(F)c3)CN(C(=O)C3CC3)C2)ccc1F (configuration not stated)
4%	Cn1cc(CN2CCCC23CCN(c2ncccn2)CC3)c(-c2ccccc2)n1
1%	COc1cccc(CNC(=O)CN2C(=O)NC3(CCCCC3)C2=O)c1
7%	O=C1CC(c2ccccc2)N(C(=O)c2ccoc2)CCCCCN1 (configuration not stated)

# The main list resumes, repeating the 5 entries before the break.
NPR1 antag	molecule
1%	COc1cccc(CNC(=O)CN2C(=O)NC3(CCCCC3)C2=O)c1
-3%[70.6 µM]	Cc1cccc(N(C)c2ccc3nnc(-c4cc(C(=O)N(C)C)ccn4)n3n2)c1
-27%	Cc1cc(C2CC(C(=O)NCc3cccc(F)c3)CN(C(=O)C3CC3)C2)ccc1F (configuration not stated)
7%	O=C1CC(c2ccccc2)N(C(=O)c2ccoc2)CCCCCN1 (configuration not stated)
4%	Cn1cc(CN2CCCC23CCN(c2ncccn2)CC3)c(-c2ccccc2)n1
2%	O=C1CCCN1CC1CCN(C(=O)c2ccc(N3CCC(CO)C3)nc2)CC1 (configuration not stated)
-3%	CCn1cnnc1CC1CCN(C(=O)NCc2ccccc2)C1 (configuration not stated)
-22%	O=C(c1cnccn1)N1CCC2(CC1)NC(=O)N(Cc1cccc(Cl)c1)C2=O
-7%	Cc1nc(CN2C(=O)OC3(CCN(C(=O)Cc4ccccn4)CC3)C2(C)c2ccccc2)cs1 (configuration not stated)
5%	O=C(NCCCn1nnc2ccccc21)C1NCCc2[nH]cnc21 (configuration not stated)
4%	O=C1NCCCCCN(C(=O)Nc2ccccc2F)[C@H]2CCCC[C@@H]12
0%	COc1ccc(CC(=O)N2CCc3nc(-c4cccnc4)[nH]c3C2)cc1
3%	CS(=O)(=O)N1CCOc2ccc(CCC(=O)NCc3ccccn3)cc2C1
22µM*	Cc1ccccc1CN1CCc2nc(C(=O)NCc3ccncc3)oc2CC1
0%	O=C(Cc1ccccc1F)N1CCC2(CC1)N(c1ccccc1)C(=O)CS2(=O)=O
4%	CC(c1ccon1)N(C)Cc1cn(-c2ccccc2)nn1 (configuration not stated)
10%	CCC(O)c1cc2n(n1)CCN(C(=O)CCc1cn3ccccc3n1)C2 (configuration not stated)
-7%	COc1ccc(C(=O)N2CCCCCCN(C)C(=O)[C@@H]3CCC[C@@H]32)c(OC)c1
2%	CC(C)CNC(=O)N1C[C@@H](Oc2ccccc2)C[C@H]1C(=O)N1CCOCC1
-17%	CN(CC1CCOCC1)S(=O)(=O)Cc1ccccc1Cl
?	COc1ccc(CN2C[C@@H](F)[C@@H](OCc3nc4ccc(C)cc4[nH]3)C2)cc1
0%	Cc1ccc(C(CC(=O)N2CCN(c3ccc([N+](=O)[O-])cc3)CC2)c2cn(C)c3ccccc23)cc1 (configuration not stated)
1%[70.6 µM]	CCNC(=O)N[C@H]1[C@H](O)[C@@H](N2CCN(c3ccccc3)CC2)[C@@H]2OC[C@H]1O2
-4%	CNC1CCN(C(=O)CC2(Cc3ccccc3)C(=O)N(C)c3ccccc32)CC1 (configuration not stated)
-13%	CCN1C(=O)C(CC(=O)NC2CCCCCC2)Sc2ncccc21 (configuration not stated)
11µM*	CCc1nccn1CC(=O)NC(C)c1cnn(-c2ccccc2C)c1C (configuration not stated)
-13%[70.6 µM]	O=C(Nc1nccs1)c1ccc2c(c1)OCCN(CCC(F)(F)F)C2
1%	O=C1CCN(C(=O)[C@@H](Cc2ccccc2)NC(=O)Nc2ccccc2)CCOCCN1
-5%	CCCN1C(=O)CCc2cc(NC(=O)Cc3c(F)cccc3Cl)ccc21
5%[70.6 µM]	Cn1cc(-c2ccc(F)c(Cl)c2)c2nc(CN3CC[S+](=O)([O-])CC3)cn2c1=O
8%	COc1ccc(CC(=O)N[C@@H]2CN(C)C[C@H]2CN(C)C)cc1OC
3%	CCn1nccc1C(=O)N1C[C@@H](COC)[C@H](c2ccncc2)C1
-14%	C=CCCC(CN1CCOCC1)Oc1ccc2cccc(OC)c2n1 (configuration not stated)
-1%	Cc1cccc(C(=O)N2CCC(Oc3ccccc3-c3nc(C)no3)C2)c1 (configuration not stated)
-3%	Cc1noc(C)c1S(=O)(=O)N1C[C@@H](Oc2cccnc2)C[C@H]1C(=O)N1CCOCC1
2%	COc1ccc(-c2cc(N3CCC(NC(=O)c4ccc(F)c(Cl)c4)C3)n[nH]2)cc1 (configuration not stated)
2%	Cc1cc(N2CCN(CC3CCCCC3)C(CCO)C2)nc(N)n1 (configuration not stated)
1%	Cc1ccc(C(=O)N2CCc3[nH]nc(C(=O)N(C)C)c3C2)cc1F
12%	Cc1noc(-c2cccn3c(CNC(=O)c4ccc(F)c(F)c4)nnc23)n1
?	CN1C[C@@H](NC(=O)Nc2ccccc2)C[C@H]1c1nc(-c2ccc(Cl)cc2)no1
5%	O=C1CC(c2ccccc2)N(C(=O)CC2CCCC2)CCCCCCN1 (configuration not stated)
-6%	Cn1c(CCNC(=O)CN2CC3CC(C2)[C@H]2CCCC(=O)N2C3)nc2ccccc21 (some centres not stated)
-10%[70.6 µM]	Cn1nccc1OCc1cn2c(=O)n(C)cc(-c3cccc(OC(F)(F)F)c3)c2n1
-3%	CC(C)CCNC(=O)N(C)CC1CCOCC1
11µM*	COc1cccc(-c2noc(CC3CCN(C(=O)c4ccc(OC)c(OC)c4)CC3)n2)c1
4%	Cc1nnc(CN(C)Cc2ccccc2OCC(O)CN2CCSCC2)o1 (configuration not stated)
2%	COc1ccccc1OCC(=O)c1ccc2c(c1)N(CCCC(=O)N1CCC(C)CC1)C(=O)CO2
-7%	O=C(Cc1cccc(F)c1)N1CCC2(CC1)NCCc1c2[nH]c2ccccc12
0%	Cc1ccc(NC(=O)Cn2ccn3nc(-c4ccccc4)c(CO)c3c2=O)cc1
2%[70.6 µM]	COc1ccc(-n2nc(C3CCN(C(=O)C4CC4)CC3)[nH]c2=O)cc1
